CapD inh: inhibitors of Bacillus anthracis CapD enzyme; z-score (concentration not given with the values); purified CapD enzyme, fluorescence intensity read-out; hits give low values; some hits fall short of the stated cut; 140,000 tested, 0.23% active;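 active = z-score under -4 in either of two replicates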;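 also: stock transfer was 100 nL into about 40 µL; score is relative to mean and spread of the plate; one replicate is shown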
AID504770: E. coli YBA685 growth inhibition, screen for V. cholerae RctB inhibitors | E. coli YBA685 rctB-dependent plasmid, OD600 growth, 3 h; hits give low values | z-score (test concentration not listed) | 130,000 tested, 0.27% active;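 active = z-score under -2 on both plates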;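 also: wells of about 30 µL received 100 nL stock; score is relative to mean and SD of the test wells; the first replicate is given; strong numbers were not always called active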
* = called active by the depositor; . = no result given; & = joins results of further samples.

Structure | CapD inh | AID504770
CCC(C(=O)Nc1nc2nc(C)c(Cl)c(=O)n2[nH]1)c1ccccc1 (centres undefined) | -0.13 | 0.1
O=C(CC1SC(=O)NC1=O)Nc1ccc(O)cc1 (centres undefined) | -0.61 | -0.4
CCC12CN3CC(CC)(CN(C1)C3c1cccc(C)c1)C2=O (centres undefined) | -0.325 | .
COC(=O)c1ccccc1NC(=O)c1cc(-c2ccco2)on1 | 0.515 | 0.4
O=C(O)COc1ccccc1/C=N/N1CCN(Cc2ccc(Cl)cc2)CC1 | -0.3 | -0.65
Cc1ccc(N2C(=N)S/C(=C/c3sccc3C)C2=O)cc1C | 0.045 | 0
Cc1noc2ncnc(NCCCN(Cc3ccccc3)C(C)C)c12 | 0.08 | -0.75
C=CC(=O)N(CC)CC | . | -0.2
CN(c1ccc(Br)cc1)S(=O)(=O)c1ccc2[nH]cc(C(=O)N3CCCCCC3)c(=O)c2c1 | 1.55 | .
CC(=O)N1CCC2(CC1)OC(=O)C(C)=C2C(=O)NCc1ccccc1 | -0.095 | -0.1
C=CCn1c(=S)sc2c(=O)n(/N=C/c3ccc(Cl)cc3Cl)c(C)nc21 | 0.475 | 0.2
Cc1cccc(C(=O)Nc2ccccc2C(=O)N2CCOCC2)c1 | 0.23 | -0.75
O=c1cc(C2CCNCC2)[nH][nH]1 | 0.15 | -0.8
O=C(O)c1ccc(OCc2occc2C(=O)O)cc1 | 0.12 | -0.4
CC(=O)N1Cc2ccccc2CC1C(=O)O (centres undefined) | -0.165 | 0.3
O=C1CC(c2ccc(S(=O)(=O)NCCc3ccccc3)cc2)CN1 (centres undefined) | -0.09 | -0.65
COc1ccc(NC2CC(C)N(C(=O)c3ccccc3)c3ccc(OC)cc32)cc1 (centres undefined) | -0.13 | .
NC(=O)C1CC(=O)N(c2ccc(OCC(=O)Nc3ccccc3)cc2)C1 (centres undefined) | -0.15 | -0.65
CCOC(=O)c1nn(-c2ccc(C)cc2)cc1C#N | -1.02 | 2.95
C/C(Cl)=C/COC(=O)N1CCN(c2ccccc2C)CC1 | 0.32 | .
CCN(C(=O)Cn1nc(C)n2c(cc3cc(C)ccc32)c1=O)c1ccccc1 | 1.32 | -1.4
Cn1c(=O)n(C)c2cc(-c3nc4sc5c(c4c(=O)[nH]3)CCC5)ccc21 | . | -0.35
Cc1cc(C)n(CCS(=O)(=O)c2ccc(Cl)cc2)n1 | 0.34 | -1.25
CCOc1ccc(N=Cc2ccccc2O)cc1 | 0.095 | .
CC(=O)Nc1ccc(S(=O)(=O)N2CCN=C2SC(C)c2ccccc2)cc1 (centres undefined) | -0.185 | -0.25

4 of the compounds above, with each value named:
> C/C(Cl)=C/COC(=O)N1CCN(c2ccccc2C)CC1
  CapD inh: 0.32
  AID504770: .

> Cc1cc(C)n(CCS(=O)(=O)c2ccc(Cl)cc2)n1
  CapD inh: 0.34
  AID504770: -1.25

> CN(c1ccc(Br)cc1)S(=O)(=O)c1ccc2[nH]cc(C(=O)N3CCCCCC3)c(=O)c2c1
  CapD inh: 1.55
  AID504770: .

> C=CCn1c(=S)sc2c(=O)n(/N=C/c3ccc(Cl)cc3Cl)c(C)nc21
  CapD inh: 0.475
  AID504770: 0.2

(continued)
Structure | CapD inh | AID504770
COc1ccc(NC(=O)c2c(C)oc3ccc(O)c(CN(CC(C)C)CC(C)C)c23)cc1 | 0.505 | -0.1
CC1CCCC(NC(=O)COC(=O)c2ccccc2C(F)(F)F)C1C (centres undefined) | 0.855 | 1.15
Cc1nc(N2CCOCC2)c2c(C)c(C(=O)N(Cc3ccc(N(C)C)cc3)Cc3ccco3)sc2n1 | -0.925 | .
Clc1ccc(CN2CCN(Cc3ccc4c(c3)OCO4)CC2)cc1 | 0.12 | -0.1
CCCN(CCC)C(=O)c1ccccc1NC(=O)c1ccccc1Cl | -0.105 | 1.7
CCOC(=O)c1nn(-c2ccccc2)c(C(=O)OCC)c1NC(=O)c1nn(CC)cc1Br | 0.43 | 0
O=C1CCCN1c1nc(-c2ccccc2)cs1 | . | 0.3
O=C(NCc1cccc(Br)c1)C1CCCN(c2nnc(N3CCCC3=O)s2)C1 (centres undefined) | 0.225 | 0.8
CC1=CC(C)C2C(=O)N(CCC[N+](C)(C)C)C(=O)C2C1 (centres undefined) | -0.315 | 0.6
O=C1c2ccccc2C(=O)c2c1nc1n2CCCC1 | -0.135 | 0.75
CN(C)C(=O)Oc1cccc([N+](C)(C)C)c1 | -0.47&0.1&-0.165 | 1.35
Cc1cc(C(=O)NC(CC(=O)OC(C)(C)C)C(=O)OC(C)(C)C)nn1C (centres undefined) | 0.19 | .
O=C1NC(c2cccc([N+](=O)[O-])c2)Nc2ccccc21 (centres undefined) | 0.025 | .
CC(=O)OCC12COC(C)C(C1)C(C)=CC2C (centres undefined) | . | -1.55
CC(C)(C)OC(=O)NCCNC(=O)Nc1cccc(Cl)c1Cl | 0.29 | .
COc1ccc(NC(=O)NCCC2=CCCCC2)cc1 | -0.295 | 0.65
CC1Sc2ccc(S(=O)(=O)CCC(=O)N(C)Cc3ccccc3)cc2NC1=O (centres undefined) | -0.02 | -1.25
CCOC(=O)c1cc2cnccc2nc1-c1ccncc1 | -0.29 | .
CCC(Sc1nc2ncccc2[nH]1)C(=O)NC1CCC(C)CC1 (centres undefined) | 0.525 | -1.3
COCC(C)NC(=O)c1ccc(NS(=O)(=O)c2ccccc2)cc1 (centres undefined) | -0.41 | -0.65
O=C(COC(=O)Cc1ccc(Cl)cc1)NCC1CCCO1 (centres undefined) | 0.3 | 0.5
COC(=O)c1cnc(Oc2cccc3cccnc23)cc1C(F)(F)F | 0.32 | .
CCc1ccc(C2NC(=O)NC(C)=C2C(=O)Nc2ccccc2)cc1 (centres undefined) | . | -0.85
CCCN(C1CCN(C)CC1)S(=O)(=O)c1ccc(NC(=O)c2ccccc2C(F)(F)F)cc1 | -0.68 | .
O=C(Cc1cn2ccsc2n1)NCCc1ccc(F)cc1 | 1.16 | 0.5

Continuation.
Structure | CapD inh | AID504770
O=C(N/N=C/c1cccs1)c1ccc(N2CCCC2=O)cc1 | -0.18 | 0.2
CCN(CC)Cn1[nH]c(=O)ccc1=O | -0.47 | 0.55
CS(=O)(=O)c1cc(C#N)c(N2CCCC2)nc1-c1ccc(Cl)cc1 | 0.13 | .
Cc1ccccc1OCC(=O)O/N=C(\N)c1ccncc1 | 0.015 | -0.35
CCCCNC(=O)CSc1nc2c(sc(=S)n2-c2ccc(OCC)cc2)c(=O)[nH]1 | 0.435 | .
COc1cccc(/C=N/NC(=O)c2cccc(C)c2)c1O | . | 1.4
Cc1ccc(C(=O)NC(C(C)C)C(C)C)cc1 | 0.01 | -1
c1ccc(Nc2nc3nonc3nc2N2CCOCC2)cc1 | -1.39 | 0.05
O=C1CC(NC2CCN(S(=O)(=O)c3ccc(Cl)cc3)CC2)C(=O)N1 (centres undefined) | . | 0.95
Cc1c(C(=O)N2CCOCC2)[nH]c2c1C(=O)CC(c1ccc(Cl)cc1)C2 (centres undefined) | -0.06 | -1.3
C=CCN1C(c2ccccc2)=CSC1/N=C/c1ccccc1 (centres undefined) | 0.695 | -0.15
COc1ccc(NC(=O)C2CCN(C(=O)/C=C/c3ccccc3)CC2)cn1 | . | -0.5
O=C(NCCc1ccccc1)C1CCN(S(=O)(=O)N2CCCCC2)CC1 | 0.355 | 0.55
CSc1ccc(NC(=O)NCCn2cnc3cccnc32)cc1 | . | -0.15
COC(=O)c1scc2c(N3CCCCC3)cc(C(F)(F)F)nc12 | 0.095 | 0.15
COc1ccc(CCNC(=O)CSc2nnc(CNC(=O)c3c(F)cccc3Cl)o2)cc1OC | 0.29 | -0.65
CCc1c(C)c(C#N)c2[nH]c3ccccc3n2c1=O | -0.21 | -1.25
COCc1nnc(NC(=O)C2C(C=C(C)C)C2(C)C)s1 (centres undefined) | . | 2.15
CCN(CC)CCOc1nnc(-c2ccc(Cl)cc2)c2ccccc12 | -0.245 | .
CCOc1cccc(-c2cc(C(=O)Nc3cc(C)on3)c3ccccc3n2)c1 | 2.91 | .
CCOC(=O)c1c(NC(=S)NCCn2cc(Br)cn2)sc2c1CCCCC2 | -1.15 | -0.55
O=C(Nc1ccc(N2CCCCC2)cc1)c1ccc2nonc2c1 | 0.835 | 0.15
CCCC(CCC)C(=O)Nc1ccc2c(c1)N(C(=O)CCl)c1ccccc1CC2 | -0.625 | .
Cc1nn(Cc2ccccc2Cl)c(C)c1C(=O)NCC(C)C | . | -0.7
CCOC(=O)c1c(-c2ccccc2)oc2ccc(OC(=O)c3ccc(Br)cc3)cc12 | 0.09 | .

4 compounds drawn at random from those above, as already listed:
Structure | CapD inh | AID504770
Cc1c(C(=O)N2CCOCC2)[nH]c2c1C(=O)CC(c1ccc(Cl)cc1)C2 (centres undefined) | -0.06 | -1.3
CCCCNC(=O)CSc1nc2c(sc(=S)n2-c2ccc(OCC)cc2)c(=O)[nH]1 | 0.435 | .
COc1ccc(NC(=O)C2CCN(C(=O)/C=C/c3ccccc3)CC2)cn1 | . | -0.5
O=C(NCCc1ccccc1)C1CCN(S(=O)(=O)N2CCCCC2)CC1 | 0.355 | 0.55

Additional results follow.
Structure | CapD inh | AID504770
Clc1nc(-c2ccccc2)cc(-c2cnc(N3CCCCC3)nc2N2CCCCC2)n1 | 1.6 | .
CCOC(=O)c1cc(-c2ccccc2)nnc1Sc1ccc(F)cc1 | 0.265 | .
CCOC(=O)c1ccc(CSc2ccc(Cl)cc2)o1 | -2.11 | -0.15
CNCC(O)c1cccc(OC(=O)c2ccccc2C)c1 (centres undefined) | -0.145 | -0.45
CCCOc1ccc(N2C(=O)C3C4c5ccccc5C(C(C)=O)(c5ccccc54)C3C2=O)cc1 (centres undefined) | 16.3 | .
CCOC(=O)c1ccc(-c2ccc(/C=C3\Sc4ccccc4C3=O)o2)cc1 | 0.225 | .
CN(N)C1=NS(=O)(=O)c2ccccc21 | . | -0.35
O=C(Cn1nc(-c2ccccc2)ccc1=O)NCc1cccs1 | 3.33 | -0.85
Cc1ccccc1C(=O)NC1CCN(CC(=O)N2CCCCC2C)CC1 (centres undefined) | . | 0.55
O=c1c(I)cn(Cc2ccccc2)c(=O)n1Cc1ccccc1 | -0.515 | 0.1
O=C1c2ccncc2C(=O)N1CNc1ccccc1 | . | -0.95
CCN(CC)c1nc2ccccc2c(=O)s1 | 1.4 | -0.7
COc1ccc(OC)c(-c2sccc2CC(=O)O)c1 | 0.285 | -0.15
O=C1CC(C(=O)O)C2(CCCCC2)O1 (centres undefined) | 0.255 | 0.4
C=C(C)c1cccc(C(C)(C)NC(=O)NCC2CCCO2)c1 (centres undefined) | 0.35 | 0.7
O=C(Cn1nc(C(=O)O)c2ccccc2c1=O)NC(=O)NCc1ccco1 | . | -0.15
COC(=O)c1ccccc1NC(=O)Cc1ccsc1 | . | -0.45
COc1ccc2[nH]c3c(c2c1)CCNC3CC(C)CCC=C(C)C (centres undefined) | -0.41 | .
Cc1ccc(-c2noc(C(C)c3ccc(CC(C)C)cc3)n2)cc1 (centres undefined) | 0.735 | 0.75
CCOC(=O)/C(=C(/C)N1CCCC1)P(=S)(N1CCOCC1)N1CCOCC1 | . | -1.8
Cc1ccc(N2CCN(S(=O)(=O)c3cccc(F)c3)CC2)cc1 | 0.11 | .
Cc1c(/C=N/n2cnnc2)c2ccccn2c1C(=O)c1ccc(F)cc1 | -3.02 | -0.35
Cc1cc(C)c(C(=O)O)c(CC(C)(C)C(=O)N2CC=C(n3c(=O)[nH]c4ccccc43)CC2)c1 | 0.345 | .
CC(C)C(NC(=O)C1COc2ccccc2O1)c1nc2ccccc2[nH]1 (centres undefined) | . | -0.6
Cc1cc(C(N)=O)c2ccccc2n1 | 0.59 | -0.1&2.2

Next compounds follow:
Structure | CapD inh | AID504770
CCC1=Nc2cc(C(=O)NCCCN3CCN(C)CC3)ccc2Sc2ccccc21 | -0.165 | -0.9
O=C(O)CSCC(=O)Nc1ccccc1 | 0.025 | -1
CCS(=O)(=O)N1CCC(C(=O)Nc2nnc(-c3ccccc3)o2)CC1 | . | -0.65
CS(=O)(=O)N(CC(=O)NCc1ccco1)c1ccccc1Br | -2.23 | 0.05
O=S(=O)(CCN1CCN(c2ccccn2)CC1)c1ccc(F)cc1 | 0.12 | -0.3
CCOC(=O)c1sc(N(Cc2ccccc2)C(=O)CN2CCN(C(C)=O)CC2)nc1C | . | 0.4
Clc1ccc(C2=NN(Cc3ccccc3)CC2)s1 | 6.7 | -1.2
CC(=O)Nc1ccc2oc(-c3ccc(C#N)cc3)cc(=O)c2c1 | 0.935 | 0.9
Cn1cc(NC(=O)Nc2cccnc2)c2ccccc2c1=O | 45.2 | -0.75
CC1CCN(CC(O)COc2ccccc2)CC1 (centres undefined) | . | -0.55
Cc1ccc[n+](CC(=O)c2cccs2)c1 | . | 2.1
CC(C)OC(=O)C(C)Nc1n[nH]c(=O)[nH]c1=O (centres undefined) | 0.23 | -1.25
O=c1oc(-c2cccs2)nc2c(Br)cc(Br)cc12 | -0.215 | -0.5
O=C(c1cccs1)N1CCN(c2ccccn2)CC1 | 0.505 | -1.1
Oc1cccc(/C=N/n2cnnc2)c1 | -0.015 | -0.15
CSc1nn(-c2ccccc2)cc1/C(N)=N/O | -0.145 | .
Cc1ccccc1C(=O)N/C(=C/c1ccc(-c2cccnc2Cl)o1)C(=O)NC1CC1 | . | 0.15
O=C(O)c1ccccc1C(=O)N1CCN(C(c2ccccc2)c2ccccc2)CC1 | -0.695 | -1.35
COc1ccc(NC(=O)CSCC(=O)O)cc1 | . | 1.25
O=S(=O)(CC(O)COc1ccccc1)c1ccccn1 (centres undefined) | 0.055 | -0.35
O=C(NCC1(c2ccccc2)CCOCC1)c1ccco1 | 0.06 | -0.25
CN(Cc1cccc(Cl)c1Cl)CC(O)COCc1ccccc1 (centres undefined) | . | -0.65
Nc1c(-c2nnc(SCc3ccc(Cl)cc3)o2)cnn1-c1ccccc1 | -0.64 | -0.95
O=S(=O)(c1ccc(-n2cnnn2)cc1)N1CCCCCCC1 | 0.05 | 0
O=C(N1CCOCC1)N1CCOCC1 | . | -0.05

Screening results (PubChem)

Only part of the results is shown (hit frequency here may not be typical).
